# CSC inhib: cancer stem cell inhibition. cancer stem cell-like cells viability, luminescence. inhibition, % at 7.5 µM. hit rate 1.1% among 300,000. AID 2717;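 active means mean at 75% or more and at least half the replicates too; inconclusive means mean and replicates disagree; tested in HMLE shEcad cells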;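 further: 0% = median of negative and 100% = median of positive control wells; the first replicate is given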
# PABP polyA inh: blocks human PABP binding to poly(A) RNA; P11940; fluorescence polarization; inhibition, % at 35 µM; hit rate 1% among 290,000;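 active means 50% or more with normal probe brightness, or confirmed in later tests; inconclusive means above 50% with abnormal brightness, or retests that disagree; inactive means below 50% or failed in later tests; about a fifth of its hits are not listed in these tables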;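 further: calls also rest on retests at 20 µM and on dose response follow-up; controls were probe without protein and protein plus probe with vehicle; some compounds called inactive have numbers as strong as hits; many hits fall short of the cut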
# eIF4H inh: inhibitors of RNA binding by human eIF4H. Q15056. eIF4H fluorescence polarization binding assay. inhibition, % at 35 µM. hit rate 0.94% among 290,000. AID 2012;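 active means 50% or more with normal probe brightness, or confirmed in later tests; inconclusive means above 50% with abnormal brightness, or retests that disagree; inactive means below 50% or failed in later tests; about a fifth of its hits are not listed in these tables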;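 further: calls also rest on retests at 20 µM and on dose response follow-up; 0% = protein and probe with vehicle and 100% = probe without protein; strong numbers were not always called active; many hits fall short of the cut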
# Rce1 inh: yeast Ras-converting enzyme inhibition; Q03530; yeast membranes, quenched prenylated peptide cleavage fluorescence; calls only; hit rate 0.27% among 290,000;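 active means fall in fluorescence gain of 50% or more versus controls, with final raw signal at or below 3038400; inconclusive means same 50% fall but final raw signal above 3038400; inactive means fall in fluorescence gain under 50%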;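 further: plate controls were neutral control wells for no effect and wells lacking membranes for full effect; tested at 10 µM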
# Target sequence (Q03530 whole entry, looked up): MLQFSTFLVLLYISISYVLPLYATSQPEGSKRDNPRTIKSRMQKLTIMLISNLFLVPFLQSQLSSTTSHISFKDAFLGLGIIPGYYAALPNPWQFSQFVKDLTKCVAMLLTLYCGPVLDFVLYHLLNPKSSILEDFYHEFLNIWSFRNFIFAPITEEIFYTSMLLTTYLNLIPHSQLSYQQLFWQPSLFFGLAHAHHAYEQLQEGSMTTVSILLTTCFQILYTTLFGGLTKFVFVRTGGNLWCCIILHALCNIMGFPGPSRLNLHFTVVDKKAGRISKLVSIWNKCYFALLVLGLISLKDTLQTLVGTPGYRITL
# UUG fidelity: alters start codon recognition fidelity in yeast | S. cerevisiae UUG-firefly luciferase reporter, luminescence/redox ratio | activity score, % at 18.7 µM | hit rate 0.13% among 350,000;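 active means replicate mean at a twofold rise or more, about +100% in these data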;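 further: firefly luciferase made from a UUG start codon reports start codon fidelity; reporter light over untreated wells divided by growth signal over untreated wells; some hits fall short of that in this replicate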
# MT1-MMP act inh: blocks activation of human MT1-MMP; P50281; HT1080 RFP-PRO-GFP cells, GFP/RFP ratio fluorescence, overnight; percent of plate control window, DMSO zero; GFP/RFP ratio change, % at 20 µM; hit rate 0.061% among 360,000;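 active means GFP/RFP ratio change of at least 30% with cell ATP level not reduced by more than half and red fluorescence within 50% of control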; further: strong numbers were not always called active
#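 Compound: 20 µM single dose, 1% DMSO / System: HT1080 RFP-PRO-GFP cells / Controls: DMSO and RFP-L50D-GFP cell wells / Read-out basis: GFP/RFP fluorescence ratio / Schedule: overnight compound exposure at 37 °C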
# Env fusion inh: HIV envelope-mediated fusion inhibition | inhibition, % at 12.3 µM | HeLa-JRFL Env/CEM21 cell fusion, luciferase | hit rate 1.1% among 360,000;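 active means mean replicate inhibition score of at least 50 and every replicate individually at or above 50; inconclusive means only one of the two criteria met; inactive means mean below 50 and not all replicates reaching 50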;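 further: 0% = plate neutral controls and 100% = maraviroc near 300 nM; one replicate is shown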
# eIF4H inh retest: further read-out of eIF4H inh, marked with its call; inhibition, %; compound at 20 µM; confirmation average;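 mean of two retest wells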
# PABP polyA inh retest: second read-out of PABP polyA inh, no call of its own (marks repeat the call); inhibition, %; compound at 20 µM; confirmation repeats;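 mean of two retest wells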
# MT1-MMP act inh RFP: also measured in MT1-MMP act inh; calls as there; RFP signal change, %; measured here: RFP expression control read;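 0 = vehicle wells; hits needed this value within 50% of zero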
# The depositor's hits bear a star; i = inactive; ? = inconclusive; . = not tested or not shown.
SMILES,CSC inhib,PABP polyA inh,eIF4H inh,Rce1 inh,UUG fidelity,MT1-MMP act inh,MT1-MMP act inh RFP,Env fusion inh,others
C=CC[C@@H](CC(=O)N[C@H](CO)Cc1ccccc1)C(=O)NCCOC(=O)[C@@H](CC=C)CC(=O)OC(C)(C)C,.,.,.,.,14,-3,0,-27,
COc1ccc(S(=O)(=O)N2CCN(c3ccc(F)cc3)CC2)cc1OC,-10,15,-10,i,4,.,.,-11,
COc1cc2c(c(OC)c1OC)C(c1ccc3c(c1)OCO3)CC(=O)O2 (stereo unspecified),.,.,.,.,-30,5,3,-8,
O=C(O)c1cccc(NC2=C(n3nnc4ccccc43)C(=O)c3ccccc3C2=O)c1,-12,-4,-6,i,.,5,3,1,
CN(C)CCCN(CCCNC(=O)/C=N/O)Cc1ccccc1,-11,39,27,i,.,-1,2,10,
O=C(Nc1ccncc1)c1cc(C2CCCCN2C(=O)CCc2ccccc2)on1 (stereo unspecified),.,.,.,.,-12,-3,-20,-8,
CC(C)c1ccc(C(=O)CC2(O)C(=O)N(CN3CCOCC3)c3ccccc32)cc1 (stereo unspecified),6,-13,1,i,-11,3,-3,.,
COCCOC(=O)/C(=C/c1ccc(OC(=O)c2ccccc2)cc1)C(C)=O,18,0,-5,i,-5,0,3,.,
COC(=O)c1ccccc1NC(=O)CNC(=O)c1ccc(OC)c(OC)c1,-5,-5,-2,i,.,3,6,11,
COc1ccc(CCN2C(=O)CCC2(C)C(=O)NCc2cccnc2)cc1OC (stereo unspecified),-7,-2,-3,i,-11,2,1,-36,
CCOC(=O)C(C)N1C(=O)S/C(=C/c2cc(C)n(-c3ccccn3)c2C)C1=O (stereo unspecified),1,?,?,i,-11,-4,-1,-49,
O=[N+]([O-])c1cccnc1Oc1ccccc1F,-9,-8,-2,i,.,-1,3,-8,

# Next section; the last two above are carried over.
SMILES,CSC inhib,PABP polyA inh,eIF4H inh,Rce1 inh,UUG fidelity,MT1-MMP act inh,MT1-MMP act inh RFP,Env fusion inh,others
CCOC(=O)C(C)N1C(=O)S/C(=C/c2cc(C)n(-c3ccccn3)c2C)C1=O (stereo unspecified),1,?,?,i,-11,-4,-1,-49,
O=[N+]([O-])c1cccnc1Oc1ccccc1F,-9,-8,-2,i,.,-1,3,-8,
Cc1ccc(-c2nc(SCC(=O)c3c(N)n(C4CC4)c(=O)[nH]c3=O)n[nH]2)cc1,-2,.,.,.,-12,-3,-6,.,
O=C(Cn1cncn1)N/N=C/c1ccncc1,-11,-9,-10,i,-11,6,3,6,
COc1ccc(Nc2ncnc3sc(C)cc23)cc1,-18,3,6,i,8,-1,0,.,
CSc1ccccc1NC(=O)CN(C)C(=O)COc1ncnc2ccccc12,8,.,.,.,6,0,2,-5,
Cc1ccc(NC(=S)N/N=C2\CC3CC=CC23)c(C)c1 (stereo unspecified),-8,51,2,i,.,-5,-1,-9,eIF4H inh retest=3;PABP polyA inh retest=0
NC(=O)c1cccc(-c2ccnc3c2CC(C(=O)NCc2ccco2)O3)c1 (stereo unspecified),.,.,.,.,12,-1,-9,-83,
Cc1ccc(C2=NOC3(CC(=O)N(c4ccc(C)cc4)C3=O)C2)cc1 (stereo unspecified),-10,-7,-4,i,.,2,3,3,
CC(Sc1nncs1)C(=O)NC1CCCCC1C (stereo unspecified),-4,1,-1,i,-8,2,0,17,
Fc1cc(Br)cc(F)c1NC(=S)N1CCOCC1,-13,0,-15,i,-12,1,3,-17,
O=C(Cn1nnc(-c2ccccc2F)n1)Nc1cccc2ncccc12,-18,-11,-17,.,0,-4,-1,.,
CC(OC(=O)c1ccc(-c2ccc([N+](=O)[O-])cc2)o1)C(=O)NC(N)=O (stereo unspecified),-6,7,-8,i,-3,0,-1,-9,
Cc1ccc2cccc(OCCCOc3ccccc3F)c2n1,.,-2,2,i,-21,2,-5,-6,
Nc1ccc(N2CCN(c3cccc(Cl)c3)CC2)cc1,3,9,0,i,.,15,6,9,
CCOc1ccc2nc(NC(=O)C3CCCN(S(=O)(=O)c4c(C)noc4C)C3)sc2c1 (stereo unspecified),50,16,-3,.,0,-9,-23,6,
CC(=O)c1ccc(N2CCN(S(=O)(=O)c3cc4[nH]c(=O)c(=O)[nH]c4cc3C)CC2)cc1,.,12,2,i,-3,0,1,-13,
CC(C)(C)n1nnnc1C(c1cccnc1)N1CCN(C(=O)c2ccco2)CC1 (stereo unspecified),-21,7,0,i,-7,-1,0,-36,
Cc1cc(C)c(NC(=S)NC(CO)(CO)CO)c(C)c1,-8,16,8,i,-23,2,1,1,
COC(=O)/C=C(\C)NC(=O)c1ccccc1Cl,-8,-8,-10,i,-8,3,1,-8,
O=C(NCCCn1ccnc1)c1ccc(Cl)cc1,-8,6,8,i,-5,8,5,14,
COc1ccc(NC(C)=O)cc1NC(=O)c1ccc(Cl)cc1,4,0,-1,i,0,-1,3,8,
COc1cc(C2Nc3ccccc3C(=O)N2c2ccccc2OC)ccc1O (stereo unspecified),-11,8,4,i,-3,2,4,.,
O=C(COC(=O)C12CC3CC(CC(Cl)(C3)C1)C2)Nc1ccc2[nH]c(=O)[nH]c2c1,-14,.,.,.,-7,1,-5,.,
Nc1ccccc1Sc1ccc(C(F)(F)F)cc1[N+](=O)[O-],66,-11,-16,i,-18,4,4,-2,
CCCc1nnc(SCC(=O)N2C(C)CCCC2C)n1CC (stereo unspecified),-11,3,-4,.,.,3,4,0,
O=C(CCCOc1ccccc1)NN1C(=O)NC2(CCCCC2)C1=O,.,.,.,i,-11,8,4,-10,
COc1cc2ccc(C(C)=NOC(C)=O)cc2cc1OC,.,.,.,.,-21,3,0,36,
N#CCSc1nc2ccc(N3CCOCC3)cc2c(=O)n1CCc1ccccc1,78*,12,23,i,-8,9,-8,25,
O=C(Nc1ccccc1C(=O)O)c1cc(S(=O)(=O)N2CCOCC2)c(Br)s1,-2,-1,2,i,14,-2,-1,-8,
CC1(C)Cc2cccc(OCC(O)CNCc3ccccn3)c2O1 (stereo unspecified),-14,-11,5,i,-22,4,0,.,
CCC(CC)c1nn2c(N)c(/C=C3\C(C)=Nc4ccccc43)c(=O)nc2s1,13,-6,-14,i,-13,2,-3,2,
CC(C)(C)C(=O)NC1(C(F)(F)F)C(=O)Nc2c1c(=O)[nH]c(=O)n2Cc1ccco1 (stereo unspecified),10,7,1,i,-14,6,1,.,
COCCN(C(=O)COC(=O)c1ccc(C)s1)c1c(N)n(Cc2ccccc2)c(=O)[nH]c1=O,-17,.,.,i,3,2,4,-3,
COc1ccc(/C(C)=N/N2C(C)CCCC2C)c(OC)c1 (stereo unspecified),-2,-12,-10,i,-2,-4,-1,2,
O=C(NCCc1ccccc1)C1CCN(Cc2cccc3ccccc23)CC1,12,-7,-14,i,-17,0,-1,11,
Cc1ccc(SCC(=O)Nc2cc([N+](=O)[O-])ccc2O)cc1,-9,2,-5,i,.,8,-1,-15,
Cc1cc(C)n(-c2nc3sc4c(c3c3nnc(SCC(N)=O)n23)CC(C)(C)OC4)n1,.,-11,10,i,-2,.,.,.,
CCN(CC(=O)NCc1cccs1)C(=O)c1ccc([N+](=O)[O-])o1,2,.,.,i,-1,2,3,-9,
COc1ccc(CCNC(=O)CSc2ccccn2)cc1OC,-11,-5,4,.,.,-3,-1,-2,
COc1ccc(OCc2cc(C(=O)N3CCCC(OC)C3)no2)c2ccccc12 (stereo unspecified),-8,3,8,i,18,-1,3,-67,
CCOC(CNC(=O)CN1C(=O)COc2ccc(S(=O)(=O)N3CCOCC3)cc21)OCC,.,4,0,i,-9,3,5,-2,
CC(C)Oc1ccc(CCNC(=O)C2CCC(=O)N(Cc3cccc(F)c3)C2)cc1 (stereo unspecified),-3,0,-6,.,-14,2,-3,-23,
CC(C)CC1(C)NC(=O)N(CC(=O)Nc2ccc(F)c(F)c2F)C1=O (stereo unspecified),3,.,.,.,-20,2,6,-3,
COc1cc(Cn2c(N)c(C#N)c3nc4ccccc4nc32)cc(OC)c1,-8,1,-3,i,-6,-4,0,-58,
CCOc1cc(/C=C2\CCn3c2nc2cc(Cl)ccc2c3=O)ccc1O,-12,24,30,i,-6,6,4,2,
Cc1ccc(S(=O)(=O)N2CCC(C(=O)C3C(=O)CCCC3=O)CC2)cc1,-18,-6,-2,i,.,3,4,9,
CCOc1cc(C(=O)Nc2cc3c(cc2N2CCCC2)n(C)c(=O)n3C)cc(OCC)c1OCC,2,.,.,i,-11,9,4,3,
COC(=O)c1cc(-c2c[nH]c3ccccc23)n[nH]1,-4,3,6,i,-17,6,3,.,
O=C(Nc1ccccc1C(=O)Nc1ccncc1)c1cccc([N+](=O)[O-])c1,9,-5,-12,i,-8,-7,1,0,
CCC(C(=O)N1CCN(c2ccccn2)CC1)n1nc(C)n2c(cc3occc32)c1=O (stereo unspecified),-7,3,5,i,-14,3,-2,.,
CCOC(=O)N1CCN(C(=O)C(CC)n2nc(C)c3sc4ccccc4c3c2=O)CC1 (stereo unspecified),2,-11,-8,i,-12,-5,-1,.,
CN(C)C(=O)c1ccc(NC(=O)c2ccccc2Sc2ccccc2C#N)cc1,-14,-1,-6,i,.,0,3,.,
O=C(O)CCc1ccc(-c2ccc(Br)cc2)n1CC(=O)O,-12,45,12,i,-22,-1,5,.,
Cc1c(C(=O)Nc2ccc(Cl)cc2)c2ccccn2c1CCc1ccncc1,21,4,12,i,-7,-17,-4,-1,
Cc1ccc2c(c1)nnn2C1CCN(CC(=O)N2c3ccccc3CC2C)CC1 (stereo unspecified),9,4,-7,i,-4,4,-3,.,
O=C1Nc2ccccc2C12OCCCCO2,2,-10,1,i,3,2,3,.,
CCCNS(=O)(=O)c1ccc(CCC(=O)NCc2cccnc2)cc1,-17,-7,-9,i,-9,-3,4,-117,
O=Cc1c(NCc2ccccc2F)c2ccccc2[nH]c1=O,-2,12,-3,i,0,-1,-1,-26,

# Of the compounds above, 10 have an aryl thioether with sulfur outside any ring.
SMILES,CSC inhib,PABP polyA inh,eIF4H inh,Rce1 inh,UUG fidelity,MT1-MMP act inh,MT1-MMP act inh RFP,Env fusion inh,others
Cc1ccc(-c2nc(SCC(=O)c3c(N)n(C4CC4)c(=O)[nH]c3=O)n[nH]2)cc1,-2,.,.,.,-12,-3,-6,.,
CSc1ccccc1NC(=O)CN(C)C(=O)COc1ncnc2ccccc12,8,.,.,.,6,0,2,-5,
CC(Sc1nncs1)C(=O)NC1CCCCC1C (stereo unspecified),-4,1,-1,i,-8,2,0,17,
Nc1ccccc1Sc1ccc(C(F)(F)F)cc1[N+](=O)[O-],66,-11,-16,i,-18,4,4,-2,
CCCc1nnc(SCC(=O)N2C(C)CCCC2C)n1CC (stereo unspecified),-11,3,-4,.,.,3,4,0,
N#CCSc1nc2ccc(N3CCOCC3)cc2c(=O)n1CCc1ccccc1,78*,12,23,i,-8,9,-8,25,
Cc1ccc(SCC(=O)Nc2cc([N+](=O)[O-])ccc2O)cc1,-9,2,-5,i,.,8,-1,-15,
Cc1cc(C)n(-c2nc3sc4c(c3c3nnc(SCC(N)=O)n23)CC(C)(C)OC4)n1,.,-11,10,i,-2,.,.,.,
COc1ccc(CCNC(=O)CSc2ccccn2)cc1OC,-11,-5,4,.,.,-3,-1,-2,
CN(C)C(=O)c1ccc(NC(=O)c2ccccc2Sc2ccccc2C#N)cc1,-14,-1,-6,i,.,0,3,.,

# These rows are one share of the data. The share of hits here may be higher or lower than overall.
